Rce1 inh – yeast Rce1p protease inhibitors, primary screen, biochemical, fluorescence, cell-free homogeneous; yeast membranes, quenched prenylated peptide cleavage fluorescence; calls only; hit rate 0.27% among 290,000;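 active means fall in fluorescence gain of 50% or more versus controls, with final raw signal at or below 3038400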;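 further: plate controls were neutral control wells for no effect and wells lacking membranes for full effect; tested at 10 µM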
Target sequence (Q03530 whole entry, looked up): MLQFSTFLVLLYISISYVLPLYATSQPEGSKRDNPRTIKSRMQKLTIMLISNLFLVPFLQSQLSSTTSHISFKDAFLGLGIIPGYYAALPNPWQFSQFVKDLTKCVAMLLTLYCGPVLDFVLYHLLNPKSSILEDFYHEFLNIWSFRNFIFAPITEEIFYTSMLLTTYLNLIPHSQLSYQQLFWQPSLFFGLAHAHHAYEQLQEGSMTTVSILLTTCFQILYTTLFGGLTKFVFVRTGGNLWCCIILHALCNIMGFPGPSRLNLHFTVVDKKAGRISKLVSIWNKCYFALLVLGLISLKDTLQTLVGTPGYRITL
UUG fidelity – modulators of yeast start codon fidelity, primary screen, whole organism, S. cerevisiae, single point, plate reader; activity score, % at 18.7 µM; AID 602363, 2012; S. cerevisiae UUG-firefly luciferase reporter, luminescence/redox ratio; hit rate 0.13% among 350,000;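 active means replicate mean at a twofold rise or more, about +100% in these data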;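 further: firefly luciferase made from a UUG start codon reports start codon fidelity; reporter light over untreated wells divided by growth signal over untreated wells; some hits fall short of that in this replicate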
eIF4H inh – human eIF4H binding inhibitors, primary screen, translation initiation inhibitor project, biochemical, uHTS, fluorescence polarization | eIF4H fluorescence polarization binding assay | AID 2012, 2009 | hit rate 0.94% among 290,000 | inhibition, % at 35 µM | Eukaryotic translation initiation factor 4H (Homo sapiens), Q15056;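 active means 50% or more with normal probe brightness, or confirmed in later tests; about a fifth of its hits are not listed in these tables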;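 further: calls also rest on retests at 20 µM and on dose response follow-up; 0% = protein and probe with vehicle and 100% = probe without protein; strong numbers were not always called active; many hits fall short of the cut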
CSC inhib – cancer stem cell viability inhibitors, primary screen, luminescence. cancer stem cell-like cells viability. inhibition, % at 7.5 µM. hit rate 1.1% among 300,000;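 active means mean at 75% or more and at least half the replicates too; tested in HMLE shEcad cells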;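 further: 0% = median of negative and 100% = median of positive control wells; the first replicate is given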
MT1-MMP act inh – blockers of MT1-MMP proenzyme processing, primary screen, HT1080 RFP-PRO-GFP cells, GFP/RFP fluorescence; GFP/RFP ratio fluorescence, overnight; percent of plate control window, DMSO zero; GFP/RFP ratio change, % at 20 µM; hit rate 0.061% among 360,000; AID 651647, 2012;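 active means GFP/RFP ratio change of at least 30% with cell ATP level not reduced by more than half and red fluorescence within 50% of control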; further: strong numbers were not always called active
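Assay system: RFP-PRO-GFP reporter HT1080 cells; read-out basis: GFP/RFP fluorescence ratio; benchmarks: DMSO wells and RFP-L50D-GFP cells; doses: 20 µM single dose, 1% DMSO; schedule: overnight cell settling, then overnight compound exposure, 37 °C, 5% CO2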
PABP polyA inh – PABP poly(A) RNA binding inhibitors, primary screen, biochemical, fluorescence polarization, uHTS; hit rate 1% among 290,000; Polyadenylate-binding protein 1 (Homo sapiens), P11940; inhibition, % at 35 µM;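 active means 50% or more with normal probe brightness, or confirmed in later tests; about a fifth of its hits are not listed in these tables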;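 further: calls also rest on retests at 20 µM and on dose response follow-up; controls were probe without protein and protein plus probe with vehicle; some compounds called inactive have numbers as strong as hits; many hits fall short of the cut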
Target sequence (P11940 whole entry, looked up): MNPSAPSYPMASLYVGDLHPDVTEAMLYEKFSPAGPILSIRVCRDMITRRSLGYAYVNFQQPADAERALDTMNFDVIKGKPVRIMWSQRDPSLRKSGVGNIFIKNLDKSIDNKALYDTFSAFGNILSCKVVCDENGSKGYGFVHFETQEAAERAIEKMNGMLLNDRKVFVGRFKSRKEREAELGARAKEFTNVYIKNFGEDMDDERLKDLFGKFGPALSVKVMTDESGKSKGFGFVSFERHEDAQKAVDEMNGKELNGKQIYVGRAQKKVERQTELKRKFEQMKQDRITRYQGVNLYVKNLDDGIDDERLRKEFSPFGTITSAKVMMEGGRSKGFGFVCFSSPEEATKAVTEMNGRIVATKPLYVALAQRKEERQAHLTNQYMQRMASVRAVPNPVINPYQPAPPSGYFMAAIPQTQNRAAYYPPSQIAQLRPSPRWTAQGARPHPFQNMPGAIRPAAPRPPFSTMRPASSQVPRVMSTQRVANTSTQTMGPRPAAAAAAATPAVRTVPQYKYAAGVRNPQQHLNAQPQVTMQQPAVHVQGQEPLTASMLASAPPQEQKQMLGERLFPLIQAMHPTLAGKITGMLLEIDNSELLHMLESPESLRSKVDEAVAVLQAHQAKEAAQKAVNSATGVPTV
Env fusion inh – inhibitors of HIV-1 Env-driven cell-cell fusion, primary screen, HeLa-JRFL effector, CEM21 target cells, luciferase; AID 651610, 2012; hit rate 1.1% among 360,000; inhibition, % at 12.3 µM;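 active means mean replicate inhibition score of at least 50 and every replicate individually at or above 50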;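 further: 0% = plate neutral controls and 100% = maraviroc near 300 nM; one replicate is shown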
MT1-MMP act inh RFP – second read-out of MT1-MMP act inh, no call of its own (marks repeat the call); RFP signal change, %; measured here: RFP expression control read;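 0 = vehicle wells; hits needed this value within 50% of zero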
Active calls of the source: *; i = inactive; . = no result given; & = joins results of further samples.

Structure	Rce1 inh	UUG fidelity	eIF4H inh	CSC inhib	MT1-MMP act inh	MT1-MMP act inh RFP	PABP polyA inh	Env fusion inh
O=C(CSc1nc(-c2ccco2)cc(C(F)(F)F)n1)Nc1ccccc1C(F)(F)F	i	-19	-5	75*	-2	-11	0	74*
CCOC(=O)[C@@H]1[C@H]2COc3ccc(Br)cc3[C@@H]2N2C(=O)N(c3ccc(OC)cc3)C(=O)[C@]12C	i	-15	-5	-1	-2	-6	-6	.
O=C(Nc1ncccn1)c1cccs1	i	-21	8	-5	5	3	-1	-50
O=C(CSc1cccc[n+]1[O-])Nc1ccc2c(c1)OCO2	i	.	3	-14	1	2	3	14
CCCCOc1ccc(C(=O)Nc2ccc(S(=O)(=O)Nc3onc(C)c3C)cc2)cc1	.	-11	-2	-8	3	3	5	.
CCOC(=O)c1ccc(NC(=O)c2cccc(S(=O)(=O)N3CCOCC3)c2)cc1	i	-3	-1	5	-13	-25	3	.
Cc1ccc(S(=O)(=O)NC2CC2)s1	i	-20	-1	-4	3	2	15	-13
O=C(OCC(=O)N1CCN(c2ccccc2)CC1)c1cccs1	i	-16	.	-13	0	0	.	-17
COc1ccc(NC(=O)c2cc(C3CCCCN3S(C)(=O)=O)on2)c(C)c1 (stereo unspecified)	.	-2	.	.	8	2	.	19
O=C(CSc1ccc2nnc(-c3cccnc3)n2n1)c1ccccc1	i	.	-6	-11	12	-2	8	-4
CC1(NC(=S)Nc2ccc3ccccc3c2)CCS(=O)(=O)C1 (stereo unspecified)	i	-4	3	-12	-1	5	-5	-3
C=CCOc1ccc(/C=N\NC(N)=S)cc1	i	-9	-3	0	-4	2	-8	i
CCc1ccc2c(CN3CCOCC3)cc(=O)oc2c1	i	-9	-4	-7	0	3	1	0
O=c1c2ccccc2ncn1CCCOc1ccccc1[N+](=O)[O-]	i	-4	-4	-6	-3	1	-10	-69
Cc1ccc(-c2noc(-c3ccccc3C(=O)N3CCN(C)CC3)n2)cc1	i	-9	17	-6	0	4	4	.
Cc1cc(NC(=O)CSc2nc3ccccc3c(=O)n2Cc2ccccc2)no1	i	4	-5	-4	3	-2	-2	-70
COc1ccc(NC(=O)Cc2nnc(SCC(=O)NC3CCCCC3)n2C)cc1	i	4	0	-5	1	1	3	3
CN(C(=O)COc1ncnc2ccc(Br)cc12)C1CCCCC1	.	-17	.	.	0	4	.	-95
O=C(CN1C(=O)COc2ccccc21)Nc1ccccc1F	i	-7	-2	-8	-1	-2	-3	1
CCOC(=O)N1CCN(C(=S)NC(C)(C)C)CC1	i	-15	2	-8	-7	3	8	-6
CCNc1nc(OCCNS(=O)(=O)c2cc(C)ccc2C)nc(N(C)C)n1	i	.	-3	-2	0	-4	7	.
COc1ccc(/C=N/NC(=O)c2cc(-c3ccccc3)nc3ccccc23)c(C(=O)O)c1OC	i	0	1	-12	0	1	-4	11
COC(=O)c1nn(-c2ccc(OC)cc2)c(=O)c2c(N)sc(C)c12	i	.	6	-5	2	1	8	-30
CC(C)(C)C1CCc2c(C(=O)NNC(=O)CCCC(=O)O)csc2C1 (stereo unspecified)	i	-1	5	7	2	3	-12	12
O=C(CCc1nc(-c2ccccc2F)no1)NCCN1CCc2ccccc2C1	i	9	-5	-10	3	1	-2	.

Next records.
Structure	Rce1 inh	UUG fidelity	eIF4H inh	CSC inhib	MT1-MMP act inh	MT1-MMP act inh RFP	PABP polyA inh	Env fusion inh
NC(=O)CC[C@@H]1NC(=O)[C@H](CO)NC(=O)c2cc([N+](=O)[O-])cc(I)c2NCCCC[C@@H](C(N)=O)NC(=O)[C@H](Cc2ccc(O)cc2)NC1=O	i	.	-6	-12	.	.	0	.
COc1ccc(CC(=O)NC(=S)Nc2cccc(CO)c2)cc1	.	-16	.	0	1	0	.	2
O=C(Nc1sc2c(c1C(=O)NCC(O)CO)CCCC2)c1ccccc1 (stereo unspecified)	i	.	.	-2	-6	-5	.	8
CN(Cc1ccc(OC(F)F)cc1)C(=O)/C=C/c1ccc(S(=O)(=O)N2CCOCC2)cc1	.	-12	.	-17	-9	-20	.	-30
COc1cccc(C2=CC(=O)C[C@H](c3ccc4c(c3)OCO4)C2)c1	.	-18	.	-3	3	-6	.	.
CCC(C)(C)NC(=O)C1CCCN(S(=O)(=O)c2ccc3c(c2)CC(C)N3C(=O)C2CC2)C1 (stereo unspecified)	i	13	-2	-8	-3	-3	3	-3
O=C1c2ccccc2C(=O)N1CC(O)CNc1ccc(Br)cc1 (stereo unspecified)	i	-2	-13	-9	2	5	-4	-12
CC(/C=C/c1ccccc1F)=N\NC(=O)c1ccccc1	i	.	-6	12	13	7	-2	-7
Cc1ccc(S(=O)(=O)N2CCOCC2)cc1C(=O)N1c2ccccc2Sc2ccccc21	i	-3	-8	-2	-8	-5	-2	.
Cc1cc(OCC(=O)Nc2ccncc2)ccc1Cl	i	-5	-2	3	2	-16	2	15
CCc1noc(N)c1C(=O)Nc1ccc(F)c(Cl)c1	i	-17	-15	-9	-2	1	-4	.
Cc1occc1C(=O)N1CCCC(N2CCN(c3cccc(Cl)c3)CC2)C1 (stereo unspecified)	i	-12	-10	-10	1	-3	-1	1
COc1ccccc1N1CCN(C(=O)c2cc(-c3ccc(F)cc3)on2)CC1	i	-6	-12	-4	-1	2	-5	4
COc1ccc(-n2nnnc2Sc2ccc(S(=O)(=O)N3CCOCC3)cn2)cc1	i	-21	-5	-10	-2	-6	-4	11
Cc1ccc2nc(-c3ccncc3)cc(C(=O)N3CCOCC3)c2c1	.	-9	-11	-3	-1	6	10	.
Cc1noc(C)c1S(=O)(=O)N(C)C[C@H]1OCCCC[C@H](C)Oc2ccc(NC(=O)CCCN(C)C)cc2C(=O)N([C@H](C)CO)C[C@@H]1C	.	26&1	.	.	0	6	.	9
Cc1ccc(C)c(NS(=O)(=O)c2ccc(OCC(=O)NCC3CCCO3)cc2)c1 (stereo unspecified)	i	-16	1	.	-2	0	-2	0
CC1CCN(C(=O)C2CCCN(S(=O)(=O)c3ccc4c(c3)CC(C)N4C(=O)C3CC3)C2)CC1 (stereo unspecified)	i	9	-4	-5	0	-7	4	27
CC(Oc1ccc(Cl)cc1Cl)C(=O)Nc1ncccn1 (stereo unspecified)	i	11	2	-19	0	-2	10	.
Cc1ccc(-c2ccc(C(=O)NCCCNC(=O)c3cnccn3)o2)cc1Cl	i	-15	-10	.	0	3	2	-10
C=C1C(=O)[C@]23C[C@H]1CC[C@H]2[C@]1(C)[C@@H](O)CC[C@@](C)(C(=O)O)[C@H]1C[C@@H]3O	.	-1	.	.	-4	-9	.	14
O=C(CSc1ccccc1C(=O)N1CCN(c2ccc([N+](=O)[O-])cc2)CC1)N1CCCC1	.	-2	.	-13	2	-24	.	0
COc1ccccc1C(=O)Nc1ccnn1C1CCN(C(=O)c2ccoc2)CC1	i	-12	-5	-2	-7	-3	-2	-2
Cc1ccccc1SCc1noc(C(=O)NC(C)C)c1C(=O)O	i	-13	-8	-15	1	3	-2	-13
CCOc1ccccc1NC(=O)COc1coc(CN2CCc3ccccc32)cc1=O	i	.	.	16	2	-6	.	-2

Arranged by value in MT1-MMP act inh RFP (highest first): some entries from above
canonical_smiles | Rce1 inh | UUG fidelity | MT1-MMP act inh | MT1-MMP act inh RFP | Env fusion inh
Cc1noc(C)c1S(=O)(=O)N(C)C[C@H]1OCCCC[C@H](C)Oc2ccc(NC(=O)CCCN(C)C)cc2C(=O)N([C@H](C)CO)C[C@@H]1C | . | 26&1 | 0 | 6 | 9
CCOc1ccccc1NC(=O)COc1coc(CN2CCc3ccccc32)cc1=O | i | . | 2 | -6 | -2
CN(Cc1ccc(OC(F)F)cc1)C(=O)/C=C/c1ccc(S(=O)(=O)N2CCOCC2)cc1 | . | -12 | -9 | -20 | -30

(more compounds)
Structure	Rce1 inh	UUG fidelity	eIF4H inh	CSC inhib	MT1-MMP act inh	MT1-MMP act inh RFP	PABP polyA inh	Env fusion inh
COc1ccc(-c2cc(C(=O)N3CCc4ccccc4C3)no2)cc1	i	-5	-4	-2	-2	2	1	-4
N/C(=N\OC(=O)c1cc([N+](=O)[O-])ccc1Cl)c1ccccn1	i	.	5	-6	1	3	-15	-2
O=C(Nc1ccc(F)cc1)c1ccc(C(=O)N2CCOCC2)cc1	i	-6	.	-12	1	2	.	-27
COc1cc(C(=O)Nc2nc3ccc(S(C)(=O)=O)cc3s2)cc(OC)c1C	i	2	-5	14	2	0	1	-2
CCOC(=O)c1[nH]c2ccccc2c1NC(=O)CC	i	-3	-5	-5	-2	3	5	6
COc1ccc(-n2nnnc2CNC(=O)C2CC(=O)N(c3ccc(F)cc3)C2)cc1 (stereo unspecified)	.	-5	.	.	14	0	.	1
Cc1ccccc1C(=O)Oc1ccccc1C(=O)N1CCOCC1	i	-5	3	.	-2	5	1	-20
CCOC(=O)N1CCN(Cc2nc(Cc3cccc(F)c3)no2)CC1	i	1	5	0	1	1	-6	3
Cc1ccc(C2=Nn3c(COc4ccc(Cl)cc4)nnc3SC2CC(=O)O)cc1 (stereo unspecified)	i	-10	8	-4	-5	2	13	-5
O=C(COc1ccc(C(=O)NCc2cccnc2)cc1)Nc1cccc(C(F)(F)F)c1	i	-24	.	8	7	-11	.	40
COc1ccc(C2C(C#N)=C(C)NC(C)=C2C#N)c(OC)c1	i	.	5	-23	-1	2	-13	-4
COc1ccc(N2CCN(S(=O)(=O)c3c(C)nc4sccn4c3=O)CC2)cc1	i	-1	-4	-8	8	1	-5	0
O=C(COc1ccc(/C=N/NS(=O)(=O)c2ccccc2)cc1)Nc1ccccc1	i	.	-4	8	-5	8	-6	.
COc1ccc(CCNC(=O)CN(c2cccc([N+](=O)[O-])c2)S(C)(=O)=O)cc1OC	i	.	8	1	2	2	-3	0
Cc1ccsc1/C=N/NC(=O)Cc1cc(=O)[nH][nH]1	i	-21	-6	-14	0	4	0	1
COc1ccc(/C=N/NC(=O)c2ccccc2O)cc1Cn1cc(Cl)cn1	i	2	6	-13	3	-3	-10	.
CCOC(=O)C(NC(=O)CC)(Nc1sc2c(c1C(=O)OC)CCN(C)C2)C(F)(F)F (stereo unspecified)	i	-18	21	2	2	-2	9	-51
CCS(=O)CC(=O)Nc1c(-c2ccccc2)oc2ccccc2c1=O (stereo unspecified)	i	-20	10	5	1	2	-4	3
CCCNc1c(NS(=O)(=O)c2ccc(Cl)s2)c(=O)oc2ccccc12	i	24	0	13	7	4	2	1
